Compound activity from PubChem BioAssay.
Calb FLC: C. albicans growth inhibition with fluconazole, primary screen, CaCi-2 strain, Alamar Blue fluorescence | C. albicans CaCi-2 (fluconazole-resistant clinical isolate) + fluconazole, 48 h | hit rate 0.57% among 300,000 | growth inhibition, % (concentration not given with the values);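 active means most replicates above 75%; inconclusive means exactly half above 75%; inactive means most below 75%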;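 further: all wells also contain fluconazole at 8 µg/ml as a sub-toxic cotreatment; 0% = median of DMSO wells and 100% = median of geldanamycin control wells; wells of about 8 µL received 7.5 nL stock; the first replicate is given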
RanGTP-Impb inh: inhibitors of RanGTP-importin-beta interaction, primary screen, biochemical, FRET, CFP-Ran, YFP-importin-beta, homogeneous; Ran GTPase (GTP-bound) - importin-beta complex; cell-free CFP-Ran/YFP-importin-beta FRET ratio; inhibition, % (concentration not given with the values); hit rate 1.1% among 300,000;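 active means most replicates above 15%; inconclusive means exactly half above 15%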;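 further: 0% = DMSO wells and 100% = Ran loaded with GDP instead of GTP; wells of about 40 µL received 100 nL stock; the first replicate is given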
Bfl-1 A1 inh: caspase 3/7 activation in MEF A1-2A-BIM cells, primary screen, A1 inhibitor project, cell-based, luminescence, HTS; caspase activation, % (no concentration beside the values); hit rate 0.066% among 330,000; Caspase-Glo 3/7 luminescence, 3 h; percent of clofoctol response, vehicle zero;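 active means over half of replicate activation scores above 10%, or exactly half above 10 with the replicate mean above 10; inconclusive means replicate mean below 10 yet half the replicates above 10; inactive means over half of replicates below 10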;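 further: wells of about 30 µL received 50 nL stock; many hits fall short of the cut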
UCH37 inh: inhibitors of human UCH37 deubiquitinase, primary screen, biochemical, Ub-AMC cleavage, fluorescence. Ubiquitin carboxyl-terminal hydrolase isozyme L5 (Homo sapiens), Q9Y5K5. purified proteasome/UCH37. inhibition, % (no concentration beside the values). hit rate 0.33% among 330,000;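 active means mean of two replicates above 20%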;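 further: 0% = compound-free wells with enzyme and 100% = wells lacking proteasome; stock transfer was 100 nL into about 20 µL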
Target sequence (Q9Y5K5 whole entry, looked up): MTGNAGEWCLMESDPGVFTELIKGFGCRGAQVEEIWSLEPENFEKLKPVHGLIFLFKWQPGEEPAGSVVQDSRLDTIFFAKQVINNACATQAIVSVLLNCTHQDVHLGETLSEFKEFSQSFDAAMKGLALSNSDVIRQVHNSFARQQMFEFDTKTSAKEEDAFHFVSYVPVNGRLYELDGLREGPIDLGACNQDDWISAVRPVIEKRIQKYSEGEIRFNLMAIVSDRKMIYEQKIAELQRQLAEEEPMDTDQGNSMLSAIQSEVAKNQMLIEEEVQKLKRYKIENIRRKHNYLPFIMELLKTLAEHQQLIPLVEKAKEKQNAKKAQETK
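assay system = human UCH37 enzyme supplied as purified proteasome complex | amount = proteasome at 0.15 nM in the dispensed enzyme solution | schedule = 30 min compound-proteasome preincubation then 25 min substrate reaction, room temperature | measured by = fluorescence, ex 355 nm, em 460 nm | benchmarks = no-proteasome wells (full inhibition) and compound-free wells (no inhibition)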
Beta2AR agonist: beta2AR agonists driving receptor internalization, primary screen, cell-based, FAP fluorogen, flow cytometry | Am2.2-beta2AR cells; reference of the scale not given here | response, % (concentration not given with the values) | hit rate 0.43% among 340,000;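 active means response above a set limit, near 3 SD of response in nonfluorescent compounds, cut at about 42% in these data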;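 further: stock transfer was 100 nL into about 11 µL; a reference agonist was the positive control; negative values mostly stem from fluorescent compounds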
Target sequence (P07550 whole entry, looked up): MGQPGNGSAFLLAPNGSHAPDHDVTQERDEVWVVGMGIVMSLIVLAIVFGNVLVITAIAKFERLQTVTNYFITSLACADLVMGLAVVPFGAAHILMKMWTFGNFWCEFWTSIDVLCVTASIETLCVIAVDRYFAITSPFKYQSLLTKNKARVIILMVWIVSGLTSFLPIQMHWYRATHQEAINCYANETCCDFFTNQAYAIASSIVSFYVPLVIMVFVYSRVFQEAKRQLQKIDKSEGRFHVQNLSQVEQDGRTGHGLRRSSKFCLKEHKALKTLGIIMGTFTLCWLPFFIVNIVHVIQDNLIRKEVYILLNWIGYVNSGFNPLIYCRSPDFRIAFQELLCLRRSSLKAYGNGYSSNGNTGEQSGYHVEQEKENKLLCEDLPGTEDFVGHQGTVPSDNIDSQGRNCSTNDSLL
Beta apoptosis: inhibitors of cytokine-induced beta cell apoptosis, primary screen, luminescence; INS-1E cytokine-induced death, ATP luminescence, 48 h; percent of positive-control rescue, neutral wells zero; protection from apoptosis, % (no concentration beside the values); hit rate 0.8% among 300,000;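 active means all replicates at 75% or more, or half of them and the mean; inconclusive means half reach 75% but not the mean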;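 further: 0% = cytokine-treated negative control wells and 100% = positive control rescue; higher means more ATP so stronger rescue from cytokine killing; wells of about 40 µL received 100 nL stock; the first replicate is given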
LANA-H2A inh: blockers of LANA interaction with H2A/H2B – biochemical, FP readout, HTS, primary screen; Protein LANA1 (Human herpesvirus 8 type P (isolate GK18)), Q9QR71; cell-free LANA-H2A/H2B peptide, fluorescence polarization; inhibition, % (no concentration beside the values); hit rate 0.6% among 320,000; in the data active means inhibition mostly above about 10%, no sharp cut-off; inactive means mostly below about 6.7%;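 further: stock transfer was 7.5 nL into about 10 µL; 0% = median of vehicle wells and 100% = median of positive control wells; one replicate is shown; the record names a cut of 25% in any replicate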
T cruzi repl: inhibitors of intracellular T. cruzi growth, primary screen, luminescence, NIH3T3 host cells | hit rate 1.4% among 300,000 | T. cruzi beta-gal in NIH3T3, 90 h | inhibition, % (no concentration beside the values);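 active means mean inhibition across valid replicates above about 55%, limit read from the data; inconclusive means mean below that limit but half or more replicates reach it; inactive means mean below it, under half of replicates reach it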;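 further: signal also drops with host cell toxicity which is not excluded here; 0% = plate median of DMSO wells and 100% = zero luminescence signal; higher percent means less beta-gal luminescence so fewer parasites; stock transfer was 50 nL into about 50 µL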
Numbers without * were called inactive; ? = inconclusive; nt = not tested or not shown.

SMILES | Calb FLC | RanGTP-Impb inh | Bfl-1 A1 inh | UCH37 inh | Beta2AR agonist | Beta apoptosis | LANA-H2A inh | T cruzi repl
O=C1CC(N2CCN(c3ccc(Cl)c(Cl)c3)CC2)C(=O)N1 (configuration not stated) | -0.4 | ? | 0.2 | 3.7 | -3.9 | -5.9 | 0.5 | -17.3
Oc1cc(NCCN2CCOCC2)cc2cccnc12 | nt | nt | -0.2 | 7.0 | 29.8 | 11.1 | 2.6 | nt
NC(=O)N1c2ccccc2CC(=O)c2ccccc21 | nt | 0.2 | nt | 11.5 | 4.3 | nt | -26.2 | 1.1
CCOC(=O)Cc1csc(NC(=O)/C=C\c2ccccc2)n1 | -26.6 | 2.2 | -0.3 | 3.1 | 9.2 | -12.9 | -3.3 | -19.6
Cc1nn(C)c(C(=O)N/N=C/c2ccncc2)c1Cl | -3.2 | 2.8 | -0.4 | nt | 4.3 | nt | 0.2 | 0.4
COc1cc(OC)cc(C(=O)NCC(=O)OC2CCOC2=O)c1 (configuration not stated) | -7.2 | -0.4 | 0.9 | 3.8 | 0.6 | -8.9 | -2.6 | -6.1
CC(=O)Nc1ccc(S(=O)(=O)Nc2nc3ccccc3nc2N2CCCC2)cc1 | -2.1 | 1.1 | -0.1 | 3.1 | 10.3 | nt | -10.8 | 10.5
Cc1ccc(S(=O)(=O)CCC(=O)Nc2cccc(S(=O)(=O)N3CCCCCC3)c2)cc1 | nt | nt | -1.7 | -1.6 | -3.6 | 8.4 | 1.5 | nt
CNC(=O)NCC12CC3CC(CC(C3)C1)C2 | -34.5 | 1.6 | -0.7 | -1.2 | -11.8 | -10.3 | 0.6 | 3.9
Cc1cc(C(=O)O)c(=O)[nH]c1C | -1.2 | ? | -0.4 | -6.4 | -2.5 | 4.2 | 4.2 | 0.5
O=C(O)CNC(=O)c1ccccc1NC(=O)c1ccco1 | nt | nt | 0.4 | 4.6 | 1.8 | -13.5 | 2.0 | nt
O=C(Cn1c(-c2ccccc2)c[n+]2ccsc12)c1ccc([N+](=O)[O-])cc1 | -11.0 | -1.2 | -0.3 | 1.2 | -6.7 | 94.3* | 1.0 | 75.0*
O=C(OCc1cnc(Cl)s1)c1cccc(Cl)c1Cl | 0.1 | 0.3 | -1.0 | 1.0 | 5.8 | -2.7 | -0.6 | 0.6
COc1ccc(S(=O)(=O)NCC(c2ccc3c(c2)OCO3)N2CCOCC2)cc1C (configuration not stated) | -7.1 | -2.3 | 0.4 | 1.9 | -5.1 | 0.6 | 0.4 | -1.4
CCOc1ccc(NC(=O)c2ccc3snnc3c2)cc1 | 0.3 | 5.3 | -3.2 | 6.0 | -0.6 | -2.0 | 0.5 | 2.9
COc1ccc(C(=O)N2CCN(S(=O)(=O)N3CCOCC3)CC2)cc1OC | 5.8 | -3.0 | 1.1 | 2.5 | -3.2 | nt | -1.7 | 6.2
COc1ccc2cc(CN(Cc3ccco3)C(c3nnnn3C3CCCCC3)C(C)C)c(=O)[nH]c2c1 (configuration not stated) | -1.3 | 12.9 | 0.1 | -5.0 | 16.3 | nt | -1.4 | 43.5
CC(NC(=O)c1cccs1)c1ccccc1 (configuration not stated) | -1.8 | 1.3 | 0.5 | 2.7 | -0.8 | -5.6 | -1.7 | -5.2
CCC(NS(=O)(=O)c1cccs1)c1ccc(C)cc1 (configuration not stated) | nt | nt | 0.0 | -0.6 | -3.9 | -5.0 | 0.9 | nt
Cc1ccc(CS(=O)(=O)CCC(=O)NCc2ccc3c(c2)OCO3)cc1 | -1.2 | 0.4 | 0.2 | 0.4 | -9.8 | -3.3 | -4.8 | -3.3
COc1cc(C)nc(N2CCCC(C(=O)NCC(C)C)C2)n1 (configuration not stated) | -3.0 | 3.2 | -0.6 | 0.8 | 7.8 | -2.4 | -6.2 | 8.1
Cc1ccsc1C(=O)C1CCCN(Cc2cccn2-c2ccc(Cl)cn2)C1 (configuration not stated) | 54.6 | 3.5 | -0.3 | 3.0 | 5.6 | 14.3 | -3.2 | 26.6
CCNS(=O)(=O)c1ccc(C(=O)Nc2ccccc2)cc1 | -9.3 | -0.2 | -0.1 | 1.3 | 3.4 | 1.2 | 1.4 | -7.7
Oc1ccc(Cl)cc1/C=N/c1nccs1 | -0.9 | ? | -0.5 | nt | -0.9 | -6.6 | -2.9 | -20.6
O=C(Cn1c(O)c(/C=C2\C=Nc3ccccc32)sc1=O)Nc1ccc2c(c1)OCO2 | 13.0 | -2.2 | 0.9 | 5.7 | 6.8 | -3.6 | 5.7 | -2.5
Next section:
SMILES | Calb FLC | RanGTP-Impb inh | Bfl-1 A1 inh | UCH37 inh | Beta2AR agonist | Beta apoptosis | LANA-H2A inh | T cruzi repl
CN(Cc1ccccc1)S(=O)(=O)c1ccc2[nH]cc(C(=O)NCC3CCCO3)c(=O)c2c1 (configuration not stated) | nt | nt | 0.0 | -1.7 | 5.5 | nt | 2.2 | nt
O=C(/C=C/c1ccco1)NCC1(c2ccccc2)CCCC1 | 3.0 | -3.8 | 2.0 | 1.5 | -9.9 | -7.5 | 0.0 | 1.6
Cc1ccc2[nH]c(=O)c(C(c3nnnn3C3CCCC3)N3CCCc4ccccc43)cc2c1 (configuration not stated) | 15.0 | -1.2 | 0.5 | 3.9 | 7.2 | -1.9 | -3.9 | ?
COc1ccc(S(=O)(=O)n2nc(-c3ccc(Cl)cc3)cc2N)cc1 | 1.2 | -0.2 | 0.6 | -0.5 | -5.2 | -19.6 | -1.6 | -1.7
Cc1ccc(NC(=O)Cc2nnc(SCC(=O)NC3=NCCS3)n2C)cc1 | 2.1 | 3.7 | 0.2 | 2.2 | -5.0 | -2.6 | -7.0 | 1.2
Brc1cccc(C=Nc2cccc3ncccc23)c1 | 1.1 | 1.0 | -0.3 | -2.1 | -0.8 | -4.7 | -5.6 | -16.5
COC(=O)c1c(NC(=O)CSc2nnnn2-c2ccccc2)sc2c1CCCC2 | 1.2 | 3.5 | -0.9 | 4.2 | 1.6 | -2.8 | 4.7 | 18.9
C/C(=C\c1ccccc1)C(=O)n1nnc2ccccc21 | -0.2 | 5.9 | -0.7 | 0.2 | -1.2 | -10.5 | 1.5 | -7.2
Cc1cccc(-n2cc(CN3CCN(Cc4nccn4C)CC3)c(-c3cccc(F)c3)n2)c1 | -51.4 | 0.4 | 0.4 | 1.7 | 0.7 | 0.2 | -3.7 | 34.7
COc1ccc(-c2csc(NC(=O)CSc3nc(SC)ns3)n2)cc1 | 11.8 | 2.8 | -1.7 | 1.8 | 2.5 | -10.2 | -2.3 | -10.4
COc1ccccc1NC(=O)C1CCN(S(=O)(=O)c2ccc3c(c2)CC(C)N3C(C)=O)CC1 (configuration not stated) | 3.5 | 0.8 | -0.4 | 3.5 | -2.6 | 4.2 | 4.0 | -2.4
Cn1c(SCc2ccc(C#N)cc2)nnc1-c1cccc(Cl)c1 | -2.2 | -5.2 | -0.1 | 0.5 | -25.5 | 0.0 | 5.1 | 12.5
Cc1cc(NC(=O)CSc2nnc(Cc3ccccc3)o2)no1 | ? | -0.9 | -0.1 | 2.2 | -3.3 | 0.1 | 3.2 | -19.6
O=C(Nc1ccc(Cl)c(S(=O)(=O)N2CCOCC2)c1)c1cc(=O)[nH]c2ccccc12 | nt | nt | 0.3 | -3.5 | 10.4 | -8.6 | 7.7 | nt
CCCOc1ccc(N2C(=O)CC(SC(=N)N3N=C(c4ccccc4)CC3c3ccccc3)C2=O)cc1 (configuration not stated) | -0.5 | 14.1 | 0.8 | -8.1 | 5.2 | 28.9 | -3.2 | 68.1*
COc1ccc(N(C(=O)c2cnccn2)C(C(=O)NCc2ccccc2)c2ccc(O)cc2)cc1 (configuration not stated) | 5.3 | -1.7 | 0.5 | -0.3 | 4.8 | 1.5 | -4.4 | -5.6
CC(=O)Nc1ccc(S(=O)(=O)NCC(=O)Nc2ccc3c(c2)OCO3)cc1 | nt | nt | -0.3 | 0.3 | 3.6 | -7.3 | 0.8 | nt
COc1ccc(NC(=O)N(CCO)Cc2cc3c(C)cc(C)cc3[nH]c2=O)cc1 | 9.4 | 2.9 | 0.3 | 0.3 | -7.1 | 1.3 | 4.0 | 6.9
CN(C(=O)c1ccco1)c1nc(CC(=O)Nc2ccccc2)cs1 | -2.4 | 3.2 | -1.5 | 5.1 | -36.4 | 3.5 | 2.5 | -20.4
CSc1nc2ccc(NS(=O)(=O)c3ccc(Cl)s3)cc2s1 | 24.2 | -3.6 | -0.9 | 2.3 | 3.8 | -6.5 | -1.2 | -3.1
Cc1cc(Cl)ccc1Oc1ncc(CN2CCN(c3ccccc3)CC2)s1 | -2.5 | 0.3 | 0.8 | 2.6 | -0.4 | 0.3 | 4.2 | 3.4
NC(=NC(=O)c1ccc(OC(F)(F)F)cc1)c1ccc(C(F)(F)F)cn1 | -2.3 | 4.8 | -0.6 | 1.3 | -8.1 | -7.6 | 4.1 | -2.7
COC(C(=O)Nc1ccnn1C1CCN(Cc2ccc(C)s2)CC1)c1ccccc1 (configuration not stated) | -8.2 | 2.2 | 0.3 | 1.2 | -22.0 | -3.3 | -3.4 | 7.4
O=C(COc1ccc(F)cc1Cl)N(Cc1nnc(-c2ccccc2Cl)o1)C1CC1 | -11.1 | 4.4 | 0.1 | 3.1 | 0.5 | 0.1 | -1.2 | 31.7
Cc1ccc(S(=O)(=O)NNC2CC(=O)N(c3ccc(Br)cc3)C2=O)cc1 (configuration not stated) | -11.9 | nt | 0.1 | 4.8 | 9.8 | -8.9 | 0.2 | -28.9
(continued)
SMILES | Calb FLC | RanGTP-Impb inh | Bfl-1 A1 inh | UCH37 inh | Beta2AR agonist | Beta apoptosis | LANA-H2A inh | T cruzi repl
Cc1ccc(/C=C2\SC(=S)N(Cc3ccccc3)C2=O)o1 | nt | nt | -0.4 | 1.5 | 17.0 | -11.5 | 3.4 | nt
c1ccc(Cn2cc(CNc3ccccc3)nn2)cc1 | 6.5 | -5.3 | -0.8 | -1.1 | 0.9 | 0.1 | -8.3 | 6.6
CCOc1ccc(N2CC(C(=O)N3CCN(c4ccccn4)CC3)CC2=O)cc1 (configuration not stated) | -1.3 | nt | 1.5 | -3.2 | -6.2 | -0.7 | -4.8 | -0.7
CCCSc1nc2ccsc2c(=O)n1CC | -5.1 | 1.9 | -0.4 | 1.2 | -1.4 | -14.9 | -1.0 | 12.9
O=C(COC(=O)Cn1cnc2ccccc21)Nc1cc(S(=O)(=O)N2CCOCC2)ccc1Cl | 1.0 | 1.8 | -0.3 | 1.8 | 4.2 | 10.8 | -0.9 | -6.8
CCC1=C(OC(=O)N(CC)CC)N2C(=O)OC(=NCC(=O)OC)[C@]2(Cc2ccccc2)[C@H]2C1=CC[C@H]1C(=O)N(C)C(=O)[C@H]12 | 4.2 | -1.9 | 1.1 | 3.9 | 8.3 | -5.1 | -5.3 | 7.1
CC(NC(=O)Nc1cccc(Cl)c1)C(c1cccs1)N1CCCC1 (configuration not stated) | -8.8 | -2.2 | -0.5 | 2.7 | 3.0 | 6.4 | 1.8 | -4.1
CCOC(=O)C1=CC[C@H]2c3c(c4ccccc4n3C)C(=O)C1N2S(=O)(=O)c1ccc(C)cc1 | nt | nt | 0.8 | 0.9 | -2.5 | -3.2 | -3.1 | nt
